Source: PubChem
B2AR ag: beta2AR agonists driving receptor internalization, primary screen, cell-based, FAP fluorogen, flow cytometry | Beta-2 adrenergic receptor (Homo sapiens), P07550 | Am2.2-beta2AR cells; reference of the scale not given here | response, % (concentration not given with the values) | actives 0.43% (n = 340,000) | AID 504454, 2011;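 active = response above a set limit, near 3 SD of response in nonfluorescent compounds, cut at about 42% in these data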;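 also: stock transfer was 100 nL into about 11 µL; a reference agonist was the positive control; negative values mostly stem from fluorescent compounds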
Target sequence (P07550 whole entry, looked up): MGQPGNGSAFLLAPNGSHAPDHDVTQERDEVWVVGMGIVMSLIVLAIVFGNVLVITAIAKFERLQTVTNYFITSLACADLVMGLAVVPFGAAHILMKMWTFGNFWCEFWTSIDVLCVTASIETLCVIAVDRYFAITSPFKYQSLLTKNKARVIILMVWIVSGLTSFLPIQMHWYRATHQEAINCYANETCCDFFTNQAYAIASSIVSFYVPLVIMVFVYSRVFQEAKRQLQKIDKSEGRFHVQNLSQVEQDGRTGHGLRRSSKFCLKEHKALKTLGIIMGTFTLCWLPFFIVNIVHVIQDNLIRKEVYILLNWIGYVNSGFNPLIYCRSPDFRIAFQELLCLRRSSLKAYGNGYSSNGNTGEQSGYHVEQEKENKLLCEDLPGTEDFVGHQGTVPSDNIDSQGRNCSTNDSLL
ALR inh: inhibitors of human ALR sulfhydryl oxidase, primary screen, biochemical, H2O2 detection, HRP-luminol luminescence, single point. FAD-linked sulfhydryl oxidase ALR (Homo sapiens), P55789. purified ALR, DTT oxidation. inhibition, % (no concentration beside the values). actives 3.8% (n = 290,000). AID 485317, 2010;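 active = mean and each replicate at 75% or more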;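 also: stock transfer was 7.5 nL into about 7.5 µL; 0% = neutral wells and 100% = wells with inactivated enzyme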
Target sequence (P55789 whole entry, looked up): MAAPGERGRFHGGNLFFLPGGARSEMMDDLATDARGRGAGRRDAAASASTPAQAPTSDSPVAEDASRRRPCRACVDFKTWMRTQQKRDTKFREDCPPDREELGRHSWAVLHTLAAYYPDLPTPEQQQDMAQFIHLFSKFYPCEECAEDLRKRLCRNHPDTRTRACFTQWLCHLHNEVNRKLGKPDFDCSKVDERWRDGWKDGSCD
E coli growth: E. coli growth inhibition, primary screen, OD600 | AID 1053175, 2014 | OD600 absorbance (test concentration not listed) | actives 0.21% (n = 330,000) | Escherichia coli growth, 23 h; active compounds read low;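 active = OD600 absorbance below the run mean of sample wells minus 3.6 SD, in any replicate, cut at about 0.56 in these data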;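 also: stock transfer was 300 nL into about 60 µL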
UCH37 inh: inhibitors of human UCH37 deubiquitinase, primary screen, biochemical, Ub-AMC cleavage, fluorescence. actives 0.33% (n = 330,000). AID 588478, 2011. Ubiquitin carboxyl-terminal hydrolase isozyme L5 (Homo sapiens), Q9Y5K5. purified proteasome/UCH37. inhibition, % (no concentration beside the values);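 active = mean of two replicates above 20%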;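 also: 0% = compound-free wells with enzyme and 100% = wells lacking proteasome; stock transfer was 100 nL into about 20 µL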
Target sequence (Q9Y5K5 whole entry, looked up): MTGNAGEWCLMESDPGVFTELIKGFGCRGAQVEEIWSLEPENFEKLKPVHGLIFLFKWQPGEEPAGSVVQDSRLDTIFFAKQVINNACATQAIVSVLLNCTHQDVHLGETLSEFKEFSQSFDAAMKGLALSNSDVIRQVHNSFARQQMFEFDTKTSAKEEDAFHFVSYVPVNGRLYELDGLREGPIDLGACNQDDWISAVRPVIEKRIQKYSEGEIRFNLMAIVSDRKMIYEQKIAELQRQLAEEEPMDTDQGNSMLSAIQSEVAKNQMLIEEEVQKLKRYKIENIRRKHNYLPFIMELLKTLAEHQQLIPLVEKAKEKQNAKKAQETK
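Test system – human UCH37 enzyme supplied as purified proteasome complex · Incubation – 30 min preincubation with enzyme, 25 min cleavage at room temperature · Detection – AMC fluorescence from Ub-AMC cleavage, excitation 355 nm, emission 460 nm · Benchmarks – no-proteasome wells (full inhibition) and compound-free wells (no inhibition)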
FGF22 binding: binders of human FGF22 protein, primary screen, FGF22 synaptogenesis inhibitor project, biophysical, thermal shift, single point; recombinant FGF22 thermal shift, SYPRO orange fluorescence; percent of sucrose octasulfate shift, DMSO zero; calls only at 9.99 µM; actives 1.5% (n = 340,000);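 active = melting point raised past a set limit in the mean and every replicate; three in four hits are not shown here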
HNF4A DNA FP: change in binding of human HNF4A to DNA, primary screen, biochemical, fluorescence polarization, FITC-DNA | Hepatocyte nuclear factor 4-alpha (Homo sapiens), P41235 | 1 h | activity change, % at 10 µM | actives 0.3% (n = 360,000) | AID 1224865, 2016; in the data active = activity change above about 30%, passing the limit was not always enough;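 also: controls were the assay level and a saturating level of protein; the project sought stronger binding though the title names inhibitors; some compounds called inactive have numbers as strong as hits; positive values seem to mean higher polarization but the record does not say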
rRNA inh HTS: reduced GFP signal of wild-type E. coli, primary screen, bacterial rRNA inhibitor project, GFP/RFP fluorescence, OD600, single point | E. coli WT GFP vs humanized-ribosome RFP mutants, 24 h; active compounds read low; DMSO median 0, no signal -100 | GFP signal change (wild-type ribosome), % (concentration not given with the values) | actives 1.6% (n = 350,000) | AID 720706, 2013;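 active = significant combined selectivity score with lowered wild-type GFP, culture density cut under 30%, mutant RFP and density less affected; inactive = any of these conditions unmet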; also: one replicate is shown; some compounds called inactive have numbers as strong as hits
rRNA inh HTS OD600: further read-out of rRNA inh HTS, marked with its call; OD600 change, %; measured here: OD600 growth;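 optical density of the mix in the first replicate; 0 = DMSO median and -100 = no signal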
rRNA inh HTS RFP: recorded beside rRNA inh HTS, whose call it bears; RFP signal change, %; measured here: RFP humanized mutant strains;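 first replicate; 0 = DMSO median and -100 = no signal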
Starred values were filed as active, the others as inactive; i = inactive; . = no result given; + = active, no number.

SMILES	B2AR ag	ALR inh	E coli growth	UCH37 inh	FGF22 binding	HNF4A DNA FP	rRNA inh HTS	rRNA inh HTS OD600	rRNA inh HTS RFP
CN(C(=O)c1ccncc1)C1CC(C)(C)N(O)C(C)(C)C1	1.2	19.6	0.739	4.2	.	0.8	.	.	.
Cc1csc(N(C(=O)c2ccc(S(=O)(=O)N(C)C)cc2)c2ccccc2)n1	2.4	-16.7	0.805	2.3	.	-1.1	.	.	.
CCOc1ccccc1N1CCN(C(=O)CNC(=O)c2ccc(OC)c(OC)c2)CC1	4.8	48.6	0.683	1.5	i	-1.6	0.4	5.1	-0.9
COCCNC(=O)C1CCN(C(=O)c2cc3sccc3n2Cc2ccc(F)cc2)CC1	-7.8	8.1	0.675	2.1	i	0.7	-3.4	-4.3	-0.4
N/C(=N\S(=O)(=O)c1cc(C(F)(F)F)cc(C(F)(F)F)c1)c1cccs1	-5.1	-9.7	0.672	6.2	i	-4.7	11.7	6.4	-0.5
CC(CS(=O)(=O)c1ccccc1[N+](=O)[O-])N1CCOCC1 (stereo not drawn)	4.5	-6.1	0.663	0.4	.	-4.1	12.7	4.0	0.3
Cn1c(SCC(=O)N2CCOCC2)nc2c(c1=O)SCC2	2.2	-0.7	0.647	5.6	i	1.6	7.6	8.5	0.9
CCCNS(=O)(=O)c1ccc(CCC(=O)NCc2ccc3c(c2)OCO3)cc1	4.7	.	0.711	-0.7	.	-0.8	.	.	.
CCN(CC)C(=O)[C@H]1CC(CC(=O)NCCCN(C)C)C(=O)N2CCc3c([nH]c4ccccc34)[C@]12C (stereo partly drawn)	-3.6	.	0.702	2.0	i	-0.8	.	.	.
COc1ccccc1CNC(=O)C1CCN(S(=O)(=O)N2CC(C)CC(C)C2)CC1 (stereo not drawn)	-4.4	24.5	0.692	1.7	i	-4.2	3.6	-0.6	0.8
COc1ccc(CCNC(=O)C(=O)NCc2cccs2)cc1OC	-6.4	-2.7	0.663	0.6	i	1.2	14.0	20.9	3.0
c1ccc(-c2cc3nc(NCC4CC4)nc(NCC4CCCCC4)c3s2)cc1	.	.	.	.	i	4.0	-19.7	-38.2	-2.9
CS(=O)(=O)N(Cc1ccc(C(=O)NC2CCCCC2O)cc1)c1ccccc1 (stereo not drawn)	1.1	-5.9	0.661	-1.2	.	-0.8	.	.	.
O=C1CCC([N+](=O)[O-])C(c2cc3c(cc2Br)OCO3)N1 (stereo not drawn)	-2.4	-15.0	0.679	0.8	i	0.7	14.0	10.4	-3.9
N#Cc1ccccc1S(=O)(=O)N1CCN(C(=O)[C@H](Cc2ccccc2)NC(=O)c2ccco2)CC1	0.4	.	0.631	0.8	i	0.7	1.5	11.1	-0.2
COc1ccc(-c2nc(SC(CC(=O)NCCN3CCOCC3)c3cccs3)n[nH]2)cc1 (stereo not drawn)	1.0	97.0*	0.706	5.9	i	2.3	-9.3	4.5	2.2
O=C(Nc1nncs1)c1cccc(S(=O)(=O)N2CCCC2)c1	19.8	.	0.695	4.0	.	3.0	.	.	.
Cc1ccc(Oc2cc(NC(=O)CCCn3nc([N+](=O)[O-])cc3C)cc([N+](=O)[O-])c2)cc1	-0.8	-14.9	0.723	-3.5	.	-7.6	.	.	.
CN(c1ccccc1)S(=O)(=O)c1cccc(NC(=O)COc2ccccc2)c1	-5.6	.	0.672	1.2	i	4.3	.	.	.
COC(=O)c1ccccc1NC(=O)NCc1c(C)nn(C)c1C	-0.8	.	0.643	-4.9	i	-0.8	10.8	-3.2	0.5
O=c1[nH]c(/C(Cl)=C/c2c(F)cccc2Cl)nc2cc(Cl)ccc12	-6.8	-1.7	0.683	-24.8	i	4.0	1.8	0.7	-2.0
COc1ccc(NC(=O)CN2CCN(CC(=O)Nc3ccccc3Cl)CC2)cc1Cl	1.3	-11.3	0.791	3.0	.	2.7	.	.	.
COCCn1c(SCC(=O)N2CCC(C)CC2)nc2c([nH]c3ccccc32)c1=O	1.9	-15.3	0.71	-37.5	i	-0.5	5.8	8.8	0.6
CCC(=O)Nc1c(-c2ccc(Cl)cc2)c(=O)c2ccccc2n1C	-3.0	-19.9	0.666	-0.2	i	-4.1	5.7	9.3	-2.0
Cc1nc2ccccn2c1C(=O)N/N=C/c1cc(C)n(-c2ccc(Br)cc2)c1C	5.3	10.4	.	.	.	-2.7	.	.	.
Going on with the list.
SMILES	B2AR ag	ALR inh	E coli growth	UCH37 inh	FGF22 binding	HNF4A DNA FP	rRNA inh HTS	rRNA inh HTS OD600	rRNA inh HTS RFP
CCn1c2c(c3cc(C(=O)O)ccc31)CCCC2=O	2.5	-25.3	0.694	-25.0	.	-2.8	.	.	.
C[C@H](N)C(=O)N1CCC(C(=O)N[C@@H](Cc2ccccc2)C(=O)Nc2ccc(F)cc2)CC1	-6.8	-26.1	0.721	1.5	i	0.4	.	.	.
S=c1[nH]c2nc(Cl)c(Cl)nc2[nH]1	.	.	.	.	i	4.3	14.9	-10.8	1.5
NC(=O)C[N+]1(CC#CC(O)(c2ccccc2)c2ccccc2)CCCC1	-3.3	4.4	0.67	4.2	+	0.2	10.2	25.0	-4.1
Fc1ccccc1N1CCN(CCCNc2ccc3nncn3n2)CC1	-3.2	-3.9	0.761	6.3	i	-2.0	7.6	7.9	-0.5
OCC[C@@H]1C[C@H](O)[C@@H](O)[C@]2(OCc3cc(Cl)ccc32)O1	.	.	.	.	i	1.1	22.2	-0.8	1.4
Cc1cc(=O)c2cc3nc(-c4cccnc4)oc3c(Br)c2o1	.	-1.1	0.684	-5.4	.	.	.	.	.
O=C(Nc1cccc(C(F)(F)F)c1)c1csc([C@@H]2C[C@H](O)[C@@H](CO)O2)n1	.	.	.	.	i	-0.5	-6.7	5.0	-1.2
OCCc1c[nH]c2cc(F)ccc12	0.8	7.2	.	.	i	-5.4	12.4	8.5	-1.6
COc1cccc(NC(=O)c2cnc(SCC(=O)NCc3ccc4c(c3)OCO4)n(C)c2=O)c1	18.8	-20.9	0.71	-51.4	i	-0.1	10.7	13.5	-2.0
O=C(O)CSc1nnc(-c2ccc3c(c2)OCO3)n1-c1ccccc1	-1.5	2.0	0.653	6.5	i	-3.0	15.6	6.1	0.7
COc1ccc(C(=O)Nc2nnc(C(F)(F)F)s2)cc1	-3.8	4.5	0.72	3.9	.	1.2	.	.	.
Cc1ccc(CNC(=O)CN(C(=O)C2(C)CC(=O)N=C3C=CC=CN32)c2cc(C)ccc2C)cc1 (stereo not drawn)	0.8	-0.9	0.677	-472.5	i	0.0	24.4	13.8	5.1
COc1cccc(-c2cnc(C(O)c3ccc(Cl)c(Cl)c3)[nH]2)c1 (stereo not drawn)	.	.	.	.	i	2.5	-59.9	-81.2	-23.9
O=C(CSc1nnc(NC(=O)c2ccccc2)s1)NC1CCCC1	-1.1	-2.0	0.683	4.1	i	-0.8	.	.	.
COCC(C)NC(=O)Cc1ccc(F)cc1 (stereo not drawn)	9.1	-4.6	0.688	4.8	.	-1.2	.	.	.
COC(=O)C1=C(C)N(CCc2cc(OC)c(OC)c(OC)c2)C(=O)N[C@H]1c1ccccc1	-4.6	-0.6	.	2.2	i	0.5	-13.1	-3.5	-6.1
O=C(c1ccc(NS(=O)(=O)c2ccccc2)cc1)N1CCCC1	16.3	-32.8	0.667	0.1	.	-2.7	.	.	.
CCN1CCN(C(=O)Cn2c(=O)sc3ccccc32)CC1	3.5	-4.5	0.656	0.1	i	-0.6	3.2	12.4	-0.8
O=C(NC1CCCC1)c1ccccc1OCc1ccccc1	-3.5	0.8	0.689	4.6	i	0.9	-48.3	-70.2	-21.4
Oc1c(CN2CCOCC2)cc(COCc2ccccc2)c2cccnc12	-1.8	36.9	0.652	-4.2	.	0.6	.	.	.
O=C1c2cnc3nc(SCc4ccccc4)nn3c2CC2c3ccccc3CCN12 (stereo not drawn)	-13.8	3.6	0.681	-115.1	.	0.4	.	.	.
N#Cc1ccccc1S(=O)(=O)N1CCN(Cc2cc3c(cc2Br)OCCO3)CC1	.	.	.	.	i	-5.8	-0.5	-0.5	3.1
O=C(CNC(=O)c1ccco1)Nc1ccc(S(=O)(=O)N2CCCC2)cc1	-0.9	-9.8	0.653	0.5	.	0.9	.	.	.
Cc1ccc(SCCN2CCN(Cc3ccccc3)CC2)cc1	5.2	-8.2	0.658	1.8	i	-0.3	5.0	0.6	0.0
Next section:
SMILES	B2AR ag	ALR inh	E coli growth	UCH37 inh	FGF22 binding	HNF4A DNA FP	rRNA inh HTS	rRNA inh HTS OD600	rRNA inh HTS RFP
COc1ccc(C(=O)NC(=S)NCc2ccco2)cc1	-6.5	5.5	0.673	3.8	i	1.9	.	.	.
Cc1c(/C=N/Nc2ccc(F)cc2)c(O)n(C)c(=O)c1C#N	5.0	-2.2	0.655	-7.6	i	-0.9	.	.	.
CN1CC(=O)N(CC(=O)N2N=C(c3ccc(Cl)cc3)CC2c2ccco2)C1=O (stereo not drawn)	-3.2	63.5	0.706	4.0	i	-3.8	10.4	5.1	9.1
Cc1cc(C)nc(NN2C(=O)/C(=C/c3ccccc3)SC2=S)n1	-2.9	-21.9	0.731	8.4	.	1.1	.	.	.
CCC(C(=O)Nc1ccon1)c1ccccc1 (stereo not drawn)	-2.0	-15.1	0.704	-0.3	i	-4.6	6.4	5.6	0.2
Cc1csc(NC(=O)C2CCCN(S(=O)(=O)c3cnc[nH]3)C2)n1 (stereo not drawn)	0.6	11.0	0.74	4.8	i	-1.4	5.8	9.0	4.0
COc1ccc(CCNC(=O)c2cccnc2)cc1	-7.5	-19.8	0.674	1.4	.	5.7	.	.	.
CCOCCCn1c(SCC(=O)Nc2cc(C(C)(C)C)nn2-c2ccccc2)nc2ccccc2c1=O	-0.4	-48.7	0.77	2.5	.	-0.2	.	.	.
Cn1c2ccccc2c2nnc(SCC(=O)NCc3ccoc3)nc21	-10.4	-0.9	0.732	6.6	i	-2.2	34.5	21.1	5.5
CCOc1cc(NC(=S)NCCCN2CCOCC2)c(OCC)cc1NC(=O)c1ccco1	-1.9	.	0.645	2.3	i	3.4	7.4	18.8	0.0
CN1CCN(c2ccc(S(=O)(=O)N3CCCCC3)cc2NC(=O)CCc2ccccc2)CC1	2.0	-2.8	0.694	2.1	i	-5.9	2.0	0.1	1.6
Cc1ccc(-c2noc(-c3ccccc3F)n2)cc1	-11.9	-1.6	0.652	6.3	i	4.7	1.4	-11.0	-7.0
Cc1c(CCC(=O)NCCCC(=O)O)c(=O)oc2cc3oc4c(c3cc12)CCCC4	0.4	-3.6	0.669	-32.6	i	3.0	-31.4	-43.7	-11.9
CCc1cc2c(SCC(=O)N(C)C3CCS(=O)(=O)C3)ncnc2s1 (stereo not drawn)	-14.5	8.3	0.638	3.5	i	1.1	-2.4	-13.4	0.2
CC(OC(=O)C1=COCCO1)C(=O)Nc1ccc(Oc2ccccc2)cc1 (stereo not drawn)	-23.8	-12.9	0.729	4.3	.	4.8	.	.	.
CC(=O)c1ccc(N2CCN(C(=O)c3ccccc3SCC(=O)NCc3ccco3)CC2)c(F)c1	-5.2	.	0.674	-33.5	i	5.5	-3.7	-1.8	9.2

This is a subset. The share of hits here may be higher or lower than overall.
